EPAC2 antag: Validation qHTS for antagonist of cAMP-regulated guanine nucleotide exchange factor 4 (EPAC2); Rap guanine nucleotide exchange factor 4 (Homo sapiens), Q8WZA2; EPAC2 Rap1B BODIPY-GDP exchange, fluorescence; Potency, µM (highest dose often 112 µM), for the others: top-dose activity, negative = inhibition, hits mostly inhibitors; actives 1.7% (n = 16,000); active = well fitted inhibition curve with a large enough effect; inconclusive = small, poorly fitted or top-dose-only effect; inactive = no such curve, though single readings can be large or run the other way;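 note: 100% = activation by cAMP agonist control; nearly all actives have a fitted effect of over 40% in size; the record reuses the description of the EPAC1 agonist screen; inactives centre near -10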
Target sequence (Q8WZA2 whole entry, looked up): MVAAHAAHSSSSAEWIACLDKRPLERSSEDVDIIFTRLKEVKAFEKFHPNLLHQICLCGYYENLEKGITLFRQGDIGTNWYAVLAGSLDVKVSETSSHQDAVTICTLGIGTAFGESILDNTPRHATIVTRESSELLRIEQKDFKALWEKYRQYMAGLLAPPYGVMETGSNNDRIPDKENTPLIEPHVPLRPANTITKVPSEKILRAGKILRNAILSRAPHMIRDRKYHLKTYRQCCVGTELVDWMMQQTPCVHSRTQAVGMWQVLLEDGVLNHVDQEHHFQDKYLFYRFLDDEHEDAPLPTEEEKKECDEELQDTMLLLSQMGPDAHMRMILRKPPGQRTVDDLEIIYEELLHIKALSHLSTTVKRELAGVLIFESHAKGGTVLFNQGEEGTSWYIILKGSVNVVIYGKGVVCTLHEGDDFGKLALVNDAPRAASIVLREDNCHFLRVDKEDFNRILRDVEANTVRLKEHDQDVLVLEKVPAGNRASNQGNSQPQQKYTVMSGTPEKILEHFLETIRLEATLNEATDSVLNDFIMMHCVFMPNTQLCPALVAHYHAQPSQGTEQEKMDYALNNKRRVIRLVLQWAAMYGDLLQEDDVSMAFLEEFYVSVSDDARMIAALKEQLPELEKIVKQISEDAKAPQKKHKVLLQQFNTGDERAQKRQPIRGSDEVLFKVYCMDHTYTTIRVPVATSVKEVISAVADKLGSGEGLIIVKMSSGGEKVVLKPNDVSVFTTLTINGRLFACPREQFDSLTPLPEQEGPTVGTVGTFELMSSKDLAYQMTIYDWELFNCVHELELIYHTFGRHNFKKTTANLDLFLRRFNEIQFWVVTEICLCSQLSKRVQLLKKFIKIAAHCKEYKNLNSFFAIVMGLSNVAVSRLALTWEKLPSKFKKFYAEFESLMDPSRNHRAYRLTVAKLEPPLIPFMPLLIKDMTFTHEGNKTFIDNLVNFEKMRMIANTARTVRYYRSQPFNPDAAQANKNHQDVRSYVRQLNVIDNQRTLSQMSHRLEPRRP
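Normalized against a 6.5 mM cAMP agonist control, compounds were tested on 100 nM EPAC2 exchanging Rap1B-bound BODIPY-GDP (250 nM) for 50 uM GDP. Fluorescence drop (ex 480, em 540 nm) was tracked at room temperature over 30 min at 5-min intervals.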
* marks the source's active call; other numbers are inactive results; & = joins results of further samples; [ ] = remark or other dose. Potency is the fitted concentration of half-maximal effect.

For O=C(Nc1cccc(F)c1)N1CCC2(CC1)CCN(C(=O)c1ccco1)CC2 the results were EPAC2 antag -17.3%.
For CCC1(C2CCN(C(=O)c3ccccc3C(C)=O)CC2)NC(=O)N(CCc2scnc2C)C1=O (stereo not given) the results were EPAC2 antag inconclusive.
For CCN1CCCC1CNC(=O)c1cnn(-c2ncc3c(n2)-c2ccc(OC)cc2CC3)c1C1CC1 (stereo not given) the results were EPAC2 antag -6.4%.
For COc1ccccc1-n1cc(CN2CCC3(CCC(CNC(=O)c4ccccc4)O3)CC2)cn1 (stereo not given) the results were EPAC2 antag -5.1%.
For CC(C)c1ccc2oc3nc(N)c(C(=O)O)cc3c(=O)c2c1 the results were EPAC2 antag 74.8%[activator].
Screening COc1cccc(CN2CCC(n3cc(C(=O)N4CCCCC4)nn3)CC2)c1OC returned EPAC2 antag inconclusive.
For CC(C)[N+](C)(CCOC(=O)C1c2ccccc2Oc2ccccc21)C(C)C the results were EPAC2 antag -6.2%&-10.6%.
For CCCCC[C@H](O)/C=C/[C@@H]1[C@@H](C/C=C\CCCC(=O)O)[C@@H](O)C[C@@H]1O the results were EPAC2 antag 1.0%[11.4 µM].
O=C(c1cc(C(F)(F)F)cc(C(F)(F)F)c1)N1CCC2(CCCN(Cc3nccs3)C2)CC1 was read as EPAC2 antag inconclusive.
Screening COCc1c(C(=O)N2CCCCC2c2cccnc2)cnn1-c1ncc2c(n1)-c1ccccc1CCC2 (stereo not given) returned EPAC2 antag 3.0%.
CCCCCCCCCCCCCCCCOC[C@H](COP(=O)([O-])OCC[N+](C)(C)C)OC(=O)NC was read as EPAC2 antag -13.5%[11.4 µM].
For O=C1CCN(CCc2ccccc2)CCN1[C@H](CO)Cc1ccccc1 the results were EPAC2 antag -8.9%.
CC(C)(C)NCC(O)COc1cccc2c1CCC(=O)N2 (stereo not given) was read as EPAC2 antag -1.9%[56.6 µM].
`N[C@@H](Cc1cc(CP(=O)(O)O)cc(-c2ccccc2Cl)c1)C(=O)O` gave EPAC2 antag 2.1%.
For Nc1c(Br)cc(Br)cc1CNC1CCC(O)CC1 (stereo not given) the results were EPAC2 antag 16.7%&1.1%.

Sorted by number of heavy atoms (ascending): 5 of the compounds above
For CC(C)c1ccc2oc3nc(N)c(C(=O)O)cc3c(=O)c2c1 the results were EPAC2 antag 74.8%[activator].
`N[C@@H](Cc1cc(CP(=O)(O)O)cc(-c2ccccc2Cl)c1)C(=O)O` gave EPAC2 antag 2.1%.
For O=C1CCN(CCc2ccccc2)CCN1[C@H](CO)Cc1ccccc1 the results were EPAC2 antag -8.9%.
For CC(C)[N+](C)(CCOC(=O)C1c2ccccc2Oc2ccccc21)C(C)C the results were EPAC2 antag -6.2%&-10.6%.
For CCC1(C2CCN(C(=O)c3ccccc3C(C)=O)CC2)NC(=O)N(CCc2scnc2C)C1=O (stereo not given) the results were EPAC2 antag inconclusive.

The listing picks up, starting three compounds before the break.
CC(C)(C)NCC(O)COc1cccc2c1CCC(=O)N2 (stereo not given) was read as EPAC2 antag -1.9%[56.6 µM].
`N[C@@H](Cc1cc(CP(=O)(O)O)cc(-c2ccccc2Cl)c1)C(=O)O` gave EPAC2 antag 2.1%.
For Nc1c(Br)cc(Br)cc1CNC1CCC(O)CC1 (stereo not given) the results were EPAC2 antag 16.7%&1.1%.
Screening CN(C)c1nc(-c2cccc(C#N)c2)nc2ccccc12 returned EPAC2 antag -28.8%.
CCCCC(=O)O[C@]1(C(=O)CO)CC[C@H]2[C@@H]3CCC4=CC(=O)CC[C@]4(C)[C@H]3[C@@H](O)C[C@@]21C was read as EPAC2 antag -1.9%.
For CC(C)N1C[C@@H](Sc2ccccn2)C[C@H]1C(=O)Nc1ccc2c(c1)Nc1ccccc1CC2 the results were EPAC2 antag -10.6%.
For COc1cc(OC)c2c(OC)c(-c3ccc4c(c3)OCO4)c(=O)oc2c1 the results were EPAC2 antag -23.3%.
`NC[C@H]1O[C@H](O[C@H]2[C@H](O)[C@@H](O[C@H]3O[C@H](CO)[C@@H](O)[C@H](N)[C@H]3O)[C@H](N)C[C@@H]2N)[C@H](O)[C@@H](O)[C@@H]1O` gave EPAC2 antag -4.3%[56.6 µM].
For c1ccc2c(N3CCCCCC3)nc(CN3CCCCC3c3nccs3)nc2c1 (stereo not given) the results were EPAC2 antag 20µM*.
Screening Cc1[nH]c2c(F)cccc2c1CC(=O)NCCN1Cc2ccccc2OC(C)C1 (stereo not given) returned EPAC2 antag -32.1%.
For c1ccc(CNc2cc(-c3ccoc3)ncn2)cc1 the results were EPAC2 antag -12.9%.
`CN(C)c1ccc(-c2ccc3ncnc(N(C)Cc4ccco4)c3c2)cc1` gave EPAC2 antag -21.5%.
COc1ccccc1CN1CCC2(CC1)CCN(C(=O)c1cccn1C)CC2 was read as EPAC2 antag -16.2%.
`O=C(O)CC1CC(c2ccccc2)=NO1` (stereo not given) gave EPAC2 antag -15.7%.
For CC(C)NC(=O)N1CC[C@@]2(CCCN(C(=O)c3cccn3C)C2)C1 the results were EPAC2 antag -26.7%.
`Clc1ccc(Cn2c(CN3CCCC3)nc3ccccc32)cc1` gave EPAC2 antag -5.2%.
Screening O=C(Nc1ccc(Cl)c(C(F)(F)F)c1)[C@@H]1CC=C[C@@H]2CCN(C3CC3)C(=O)[C@@H]21 returned EPAC2 antag -19.0%.
Screening COc1ncc2nc(-c3ccc(F)cc3)c(=O)n(C)c2n1 returned EPAC2 antag -6.3%.
`CC(=O)N[C@@H](CC(=O)O)C(=O)N[C@@H](CCC(=O)O)C(=O)O` gave EPAC2 antag -2.9%.
For CNc1ncnc2ccc(-c3ccccc3CN(C)C)cc12 the results were EPAC2 antag -10.4%.
OC1(c2ccc(Cl)cc2)CCN(Cc2c[nH]c3ccccc23)CC1 was read as EPAC2 antag inconclusive.
`CC(C)NCC(O)COc1ccc(COCCOC(C)C)cc1` (stereo not given) gave EPAC2 antag -8.9%&12.1%&9.3%.
CCCCCCCCCOC(=O)C1N2C(=O)[C@@H](NC(=O)COc3ccccc3)[C@H]2SC1(C)C (stereo not given in full) was read as EPAC2 antag -22.1%.
Screening COc1ccccc1C1CN(CCNC(=O)[C@@H]2CSC(=O)N2)Cc2ccccc2O1 (stereo not given in full) returned EPAC2 antag -21.3%.
Screening Cc1ccc(CN2CCc3nnc(C(C)NC(=O)c4cc(F)ccc4F)n3CC2)o1 (stereo not given) returned EPAC2 antag -8.8%.
Screening COc1ccc(C(=O)N2CCC[C@@]3(CCN(CC(C)C)C3)C2)cc1 returned EPAC2 antag -10.6%.
For N#Cc1ccccc1-c1ccc2ncnc(NCc3cccs3)c2c1 the results were EPAC2 antag -11.0%.
COc1ccc(-c2cc(=O)c3cc(OC)ccc3o2)cc1 was read as EPAC2 antag -12.5%.
Screening Cc1cccc(CNC(=O)c2c3n(c(C)cc2=O)-c2ccccc2SC(c2sccc2C)C3)n1 (stereo not given) returned EPAC2 antag -7.5%.
Screening CCCCCCCCCCCCCCCCOCCOCCOCCOCCOCCOCCOCCOCCOCCOCCOCCOCCOCCOCCOCCOCCOCCOCCOCCOCCO returned EPAC2 antag -16.7%.
Screening COC(=O)c1ccccc1-c1cc(C)cc2c1OC(CNC(=O)c1ccn(C)n1)C2 (stereo not given) returned EPAC2 antag inconclusive.
`O=C(c1ccco1)N1CCC[C@@]2(CCN(C(c3ccccc3)c3ccccc3)C2)C1` gave EPAC2 antag inconclusive.
`CN1[C@H](CC(=O)c2ccccc2)CCC[C@H]1C[C@H](O)c1ccccc1` gave EPAC2 antag -19.2%.
Cc1oc(-c2ccccc2NC(=O)c2ccsc2)nc1CN(C)CC1CC=CCC1 (stereo not given) was read as EPAC2 antag 9.1%.
Screening COc1ccc(CN2CCOc3ccc(CN4CCC(O)CC4)cc3C2)c(OC)c1OC returned EPAC2 antag -17.5%.
`O=C(CN1CCNCC1)NC1CCCCC1` gave EPAC2 antag 0.9%.
Screening CCCCC(CC)CCC(CC(C)C)OS(=O)(=O)O (stereo not given) returned EPAC2 antag inconclusive.
For COc1cc(O)c2c(=O)c(O)c(-c3ccc(O)c(O)c3)oc2c1 the results were EPAC2 antag -22.3%.
`O=C(O)[C@@H]1CSCN1` gave EPAC2 antag 9.3%.
`O=C(NCC1Cc2cccc(-c3cnccn3)c2O1)c1ccc2c(c1)OCCO2` (stereo not given) gave EPAC2 antag -27.5%.
For N#Cc1cccc(NC(=O)N2CC3(CCN(C(=O)c4cnccn4)CC3)C2)c1 the results were EPAC2 antag -4.2%.
Screening FC(F)(F)c1ccccc1-c1nc(NC2CC2)c2ccccc2n1 returned EPAC2 antag -22.6%.
For O=C(C[C@H]1C(=O)N(c2ccc(F)c(F)c2)C[C@@H]1Cc1ccccc1)Nc1ccccc1 the results were EPAC2 antag -16.1%.
Screening Cc1cnc(C)c(-c2ccc(F)c3c2OC(CNC(=O)Cc2c(C)[nH]c4ccccc24)C3)n1 (stereo not given) returned EPAC2 antag -15.1%.
`C[C@@H]1CCC(=O)N(CC[C@H](Oc2ccccc2)c2ccccc2)CC1` gave EPAC2 antag 79.4µM*.
Cc1c(C(=O)NCC2(N3CCOCC3)CCCCC2)cnn1-c1nccc(-c2ccccc2F)n1 was read as EPAC2 antag 3.2%.
For NC(=O)OCC(O)COc1ccc(Cl)cc1 (stereo not given) the results were EPAC2 antag -6.2%[56.6 µM].
Cc1ccccc1-c1cc(N(C)Cc2ccco2)ncn1 was read as EPAC2 antag -26.3%.
For Cc1cnc(CNc2nc(-c3c(C)noc3C)nc3ccccc23)cn1 the results were EPAC2 antag -20.3%.
For O=S1(=O)[C@H]2C[C@@H]3C=C[C@@]2(CN1Cc1ccc(F)cc1)O3 the results were EPAC2 antag -7.5%.
For CCN(CC)C(=S)SSC(=S)N(CC)CC the results were EPAC2 antag inconclusive.
CCN(CC)C(=O)c1cccnc1 was read as EPAC2 antag 13.4%.
COc1ccc2[nH]cc(CCNc3nc(-c4cccc(C#N)c4)nc4ccccc34)c2c1 was read as EPAC2 antag -27.7%.
Screening Cc1ccccc1-c1ccc(CN2CCc3nnc(CNC(=O)c4ccccn4)n3CC2)cc1 returned EPAC2 antag -3.4%.
For C=CCN1CCc2nc(N)sc2CC1 the results were EPAC2 antag 0.6%.
Screening COc1cc(-c2coc3cc(OCc4ccccc4)c(OC)c(O)c3c2=O)cc(O)c1OC returned EPAC2 antag -18.4%.
`Cc1ccc(CC(Cc2nc3ccccc3[nH]2)c2nc3ccccc3[nH]2)cc1` (stereo not given) gave EPAC2 antag -14.4%.
Screening Cc1cnc(C(=O)NCCc2ccc(S(=O)(=O)NC(=O)NC3CCCCC3)cc2)cn1 returned EPAC2 antag -10.3%.
For COc1ccc2c(c1)CCc1cnc(-n3ncc(C(=O)NCC(C)(C)CN(C)C)c3C)nc1-2 the results were EPAC2 antag -33.6%.
`O=C1CCN(CCc2ccccc2)CCN1CCOc1ccccc1` gave EPAC2 antag inconclusive.
`O=C(O)Cc1c[nH]c2ccc(O)cc12` gave EPAC2 antag 0.3%.
`COc1ccc2cc([C@H](C)CO)ccc2c1` gave EPAC2 antag -20.5%.
`CC(C)NC(=O)N1CCC2(CC1)CCN(S(C)(=O)=O)CC2` gave EPAC2 antag -12.8%.
Screening O=C(c1cnccn1)N1CCC2(CC1)CCN(c1ncccn1)CC2 returned EPAC2 antag -12.3%.
N#Cc1cccc(-c2nccc(-n3ccnc3)n2)c1 was read as EPAC2 antag -28.9%.
Screening COc1cccc(C2(CC(=O)N3CCN(c4ccccn4)CC3)CC(=O)N(C3CCCC3)C2=O)c1 (stereo not given) returned EPAC2 antag -8.3%.
CNc1nc(-c2cccc(C#N)c2)nc2ccccc12 was read as EPAC2 antag -12.5%.
Screening C[C@@H]1CNCCN1S(=O)(=O)c1cccc2cnccc12 returned EPAC2 antag -4.7%.
For O=S(=O)(c1ccccc1)N1CCC2(CCN(C(c3ccccc3)c3ccccc3)CC2)CC1 the results were EPAC2 antag -13.4%.
Screening CC(NC(=O)c1cccnc1)c1nnc2n1CCN(Cc1ccc(-c3ccccc3)cc1)CC2 (stereo not given) returned EPAC2 antag 8.9%.
Screening Cc1c(O)cc(O)c2c(=O)c(-c3ccc(O)cc3)coc12 returned EPAC2 antag -5.6%.
Screening C[C@@H]1C[C@H]2[C@@H]3CCC4=CC(=O)C=C[C@]4(C)[C@@]3(F)[C@@H](O)C[C@]2(C)[C@@]1(O)C(=O)COC(=O)c1cccc(S(=O)(=O)O)c1 returned EPAC2 antag 35.3%[activator].
`O=c1c(-c2ccccc2)nc2cncnc2n1Cc1ccc(F)cc1` gave EPAC2 antag inconclusive.
For CC1(C)[C@H]2CC[C@]1(C)[C@H](O)C2 the results were EPAC2 antag 10.1%.
`C[C@@]12C(=O)OC(=O)[C@]1(C)C1CCC2O1` gave EPAC2 antag -32.0%[56.6 µM].
For COc1ccccc1CN1CCC2(CC1)CCN(C(=O)c1cccc(F)c1)CC2 the results were EPAC2 antag -8.0%.
Screening CN(CCO)C(=O)c1cn(C2CCN(Cc3ccc(C(F)(F)F)cc3)CC2)nn1 returned EPAC2 antag -14.1%.
`CC1=CC2C(C(C)C)CCC(C)(O)C2CC1` (stereo not given) gave EPAC2 antag inconclusive.
CCc1cc2c(c(CC)n1)CCC(=O)N2Cc1ccc(-c2ccccc2-c2nn[nH]n2)cc1 was read as EPAC2 antag inconclusive.
For COc1ccccc1CN1CCC2(CC1)CCN(C(=O)c1c(C)noc1C)CC2 the results were EPAC2 antag -13.8%.
O=c1[nH]c(Cl)nc2c1ncn2C1OC(CO)C(O)C1O (stereo not given) was read as EPAC2 antag 0.7%.
Screening O=C(O)CCCCCCCCc1cn(CC2CCCCC2)nn1 returned EPAC2 antag -22.6%.
`Cc1ccc2c(c1)CN(CCNC(=O)C(C)Oc1ccccc1)CC(C)O2` (stereo not given) gave EPAC2 antag -0.7%.

Only part of the results is shown, so the mix of outcomes need not match the whole.
